# Source: PubChem
# Vaccinia inh: blocks a specific stage of Vaccinia orthopoxvirus infection; Vaccinia-infected cells, mCherry/Venus stage reporter fluorescence; stronger effect = lower value; some inactives read as strong as hits; 89,000 tested, 0.01% active; AID 1053133; activity change (mCherry), % (test concentration not listed);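 active = mCherry past -33% and 40 or more points under the early reporter, replicates agreeing; inconclusive = past -33% without that gap or agreement; tested in A549 cells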;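 also: scaled between vehicle wells and reference inhibitor wells; 23 nL library stock went into each well; one replicate is shown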
# Vaccinia inh Venus: further read-out of Vaccinia inh, marked with its call; activity change (Venus), %; measured here: Venus reporter, other viral stage;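 negative = less Venus signal; first of two replicates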
# * marks the source's active call; other numbers are inactive results; u = inconclusive; x = not tested or not shown; & = joins results of further samples. An excerpt. The share of hits here may be higher or lower than overall.
SMILES,Vaccinia inh,Vaccinia inh Venus
O=C(N[C@@H]1CC[C@@H](CCn2cc(Cc3ccccc3)nn2)O[C@@H]1CO)c1cnccn1,13,0
O=C(c1cnccn1)N1CC(=O)N2[C@@H](CO)[C@H](c3ccc(C#CCC4CCCC4)cc3)[C@@H]2C1,-7,-12
C[C@H]1CCCCO[C@H](CN(C)C(=O)NC2CCCCC2)[C@@H](C)CN([C@@H](C)CO)C(=O)c2cc(NS(=O)(=O)c3ccc(Cl)cc3)ccc2O1,u,x
CCC(=O)Nc1ccc2c(c1)C(=O)N(C)[C@H]1CC[C@H](CC(=O)NCCOC)O[C@H]1CO2,7,10
CN1CCN(C(=O)C[C@@H]2CC[C@@H]3[C@H](COC[C@@H](O)CN3C(=O)C3CCCC3)O2)CC1,7,8
COc1ccccc1CNC(=O)C[C@@H]1CC[C@@H]2[C@H](COC[C@H](O)CN2Cc2ccccc2)O1,-7,-3
Cc1ccccc1-c1ccc([C@@H]2[C@H](CO)N3CCCCN(S(=O)(=O)c4cn(C)cn4)C[C@@H]23)cc1,-33,-32
CC(C)CC#Cc1cnc2c(c1)C(=O)N([C@@H](C)CO)C[C@H](C)[C@@H](CN(C)C(=O)CN1CCOCC1)O2,29,17
C[C@H]1CN([C@@H](C)CO)C(=O)c2cc(NS(C)(=O)=O)ccc2O[C@H]1CN(C)C,10,3
C[C@@H]1CN([C@@H](C)CO)C(=O)c2cc(NC(=O)C3CC3)ccc2O[C@@H]1CN(C)Cc1ccc(-c2ccccc2)cc1,u,x
C[C@@H]1CN([C@H](C)CO)S(=O)(=O)c2ccc(/C=C/c3ccccc3)cc2O[C@H]1CN(C)C(=O)c1cccnc1,-20,-16
O=C(C[C@@H]1CC[C@H]2[C@@H](COC[C@@H](O)CN2S(=O)(=O)c2ccccc2F)O1)NCc1ccccc1F,9,8
COc1ccc(NC(=O)N(C)C[C@H]2Oc3c(NS(=O)(=O)c4ccc(C)cc4)cccc3C(=O)N([C@H](C)CO)C[C@@H]2C)cc1,2,2
CO[C@@H]1CN(C)C(=O)c2cc(NC(C)=O)ccc2OC[C@H](C)NC[C@H]1C,11,9
CNC[C@@H]1Oc2ccc(NC(=O)Nc3ccc(F)cc3)cc2CC(=O)N([C@@H](C)CO)C[C@H]1C,3,0

# 4 successive records out of the list so far, for reference:
SMILES,Vaccinia inh,Vaccinia inh Venus
O=C(C[C@@H]1CC[C@H]2[C@@H](COC[C@@H](O)CN2S(=O)(=O)c2ccccc2F)O1)NCc1ccccc1F,9,8
COc1ccc(NC(=O)N(C)C[C@H]2Oc3c(NS(=O)(=O)c4ccc(C)cc4)cccc3C(=O)N([C@H](C)CO)C[C@@H]2C)cc1,2,2
CO[C@@H]1CN(C)C(=O)c2cc(NC(C)=O)ccc2OC[C@H](C)NC[C@H]1C,11,9
CNC[C@@H]1Oc2ccc(NC(=O)Nc3ccc(F)cc3)cc2CC(=O)N([C@@H](C)CO)C[C@H]1C,3,0

# Record cards, from the list above. Order of values: Vaccinia inh | Vaccinia inh Venus
# Results for COc1ccc(NC(=O)N(C)C[C@H]2Oc3c(NS(=O)(=O)c4ccc(C)cc4)cccc3C(=O)N([C@H](C)CO)C[C@@H]2C)cc1 = 2 | 2
# Results for C[C@@H]1CN([C@H](C)CO)S(=O)(=O)c2ccc(/C=C/c3ccccc3)cc2O[C@H]1CN(C)C(=O)c1cccnc1 = -20 | -16

# (cont.)
SMILES,Vaccinia inh,Vaccinia inh Venus
C[C@H](NC(=O)C[C@@H]1CC[C@H](NC(=O)C2CCC2)[C@@H](CO)O1)c1ccccc1,2,10
COc1cccc(-c2ccc(CC[C@H]3O[C@H]4CC[C@@H](CO)O[C@H]4C[C@@H]3NC(=O)c3cnccn3)cc2)c1,4,-3
CCCNC(=O)N[C@@H]1C=C[C@H](CC(=O)NC2CCCCC2)O[C@H]1CO,-1,-2
COc1ccccc1S(=O)(=O)N(C)C[C@H]1OCc2ccccc2-c2ccccc2C(=O)N([C@@H](C)CO)C[C@H]1C,22,5
COCC(=O)NC[C@@H]1[C@@H](c2ccccc2)[C@H](CO)N1C(=O)c1ccccc1,7,2
C[C@@H]1CN([C@H](C)CO)C(=O)Cc2cc(NC(=O)NC3CCCCC3)ccc2O[C@H]1CN(C)C(=O)Nc1ccc(C(F)(F)F)cc1,17,4
C[C@@H]1CN([C@@H](C)CO)S(=O)(=O)c2ccc(C3=CCCCC3)cc2O[C@H]1CN(C)Cc1ccccn1,u,x
COc1ccc(-c2cnc3c(c2)C(=O)N([C@@H](C)CO)C[C@H](C)[C@H](CN(C)Cc2cccnc2)O3)cc1,17,5
CCCC#Cc1ccc2c(c1)O[C@H](CN(C)C(=O)c1ccccn1)[C@H](C)CN([C@H](C)CO)S2(=O)=O,-20,-17
CCCNC(=O)[C@@H]1[C@@H](CO)[C@@H]2Cn3c(ccc(-c4ccccc4)c3=O)[C@H]1N2C(=O)CC,13,6
CO[C@H]1CN(C)C(=O)c2ccc(NC(=O)C3CCOCC3)cc2OC[C@@H](C)N(CC2CC2)C[C@H]1C,15,12
C[C@H](CO)N1C[C@H](C)[C@@H](CN(C)C)Oc2ncc(C#CCN(C)C)cc2C1=O,27,20
CC(C)C#Cc1ccc2c(c1)O[C@@H](CN(C)C(=O)Cc1ccccn1)[C@@H](C)CN([C@H](C)CO)S2(=O)=O,-21,-16
CCCNC(=O)[C@@H]1[C@@H](CO)[C@@H]2Cn3c(cccc3=O)[C@H]1N2S(=O)(=O)c1ccccc1C,8,7
C[C@H](CO)N1C[C@H](C)[C@H](CN(C)C(=O)C2CCCCC2)Oc2ncc(C#CC3CCCC3)cc2C1=O,-18,-20
O=C(C1CCOCC1)N1C[C@@H]2N[C@H](C1)C2c1ccc(-c2cncnc2)cc1 (stereo partly drawn),6&12,-1&-4
C[C@@H]1CN([C@@H](C)CO)C(=O)c2cc(NS(=O)(=O)c3ccccc3)ccc2O[C@@H](C)CCCCO[C@@H]1CN(C)S(=O)(=O)c1ccc(Cl)cc1,-14,-11
C[C@H]1CN([C@@H](C)CO)C(=O)c2ccccc2-c2ccccc2CO[C@H]1CN(C)S(=O)(=O)c1ccsc1,-14,-5
C[C@@H]1CN([C@H](C)CO)S(=O)(=O)c2ccc(C#Cc3ccc(F)cc3)cc2O[C@H]1CN(C)S(=O)(=O)c1ccc(F)cc1,-6,-7
O=C(C[C@@H]1CC[C@H](NS(=O)(=O)c2ccc(F)cc2)[C@H](CO)O1)NCc1ccncn1,8,9
C[C@@H]1CCCCO[C@H](CN(C)S(=O)(=O)c2ccc(Cl)cc2)[C@@H](C)CN([C@@H](C)CO)C(=O)c2cc(NC(=O)Nc3ccc(F)cc3)ccc2O1,u,x
CNC(=O)C[C@@H]1CC[C@H]2[C@@H](COc3ccc(NC(=O)c4ccc(F)c(F)c4)cc3C(=O)N2C)O1,14,15
O=C(NCC[C@@H]1CC[C@H](NS(=O)(=O)c2cccc(F)c2)[C@@H](CO)O1)C1CC1,1,4
O=C(N[C@@H]1CC[C@@H](CCNS(=O)(=O)c2cccc(Cl)c2)O[C@H]1CO)c1ccncc1,-10,5
CN(C)CCCNC(=O)C[C@H]1CC[C@@H]2[C@H](COc3ccc(NC(=O)c4cccc(F)c4)cc3C(=O)N2C)O1,11,11
C[C@@H]1CCCCO[C@@H](CN(C)CC2CCCCC2)[C@@H](C)CN([C@@H](C)CO)C(=O)c2cc(NS(=O)(=O)c3cn(C)cn3)ccc2O1,15,6
C[C@@H]1CN([C@@H](C)CO)C(=O)c2cc(C#CC3CC3)cnc2O[C@@H]1CN(C)C,-2,5
C[C@H](CO)N1C[C@H](C)[C@H](CN(C)Cc2ccc(C(=O)Nc3ccccc3N)cc2)Oc2ccc(NC(=O)CCN3CCOCC3)cc2CC1=O,29,14
CC(C)C#Cc1ccc([C@@H]2[C@H]3CN(C(=O)Nc4ccccc4)CCCCN3[C@H]2CO)cc1,u,x
C[C@H]1CN([C@@H](C)CO)C(=O)c2cc(NS(C)(=O)=O)ccc2O[C@@H]1CN(C)Cc1ccc(Cl)c(Cl)c1,-13,-12

# Ordered by count of non-hydrogen atoms (smallest number first): some entries from above
SMILES,Vaccinia inh,Vaccinia inh Venus
CNC(=O)C[C@@H]1CC[C@H]2[C@@H](COc3ccc(NC(=O)c4ccc(F)c(F)c4)cc3C(=O)N2C)O1,14,15
C[C@H]1CN([C@@H](C)CO)C(=O)c2ccccc2-c2ccccc2CO[C@H]1CN(C)S(=O)(=O)c1ccsc1,-14,-5
C[C@@H]1CN([C@@H](C)CO)C(=O)c2cc(NS(=O)(=O)c3ccccc3)ccc2O[C@@H](C)CCCCO[C@@H]1CN(C)S(=O)(=O)c1ccc(Cl)cc1,-14,-11

# (next part)
SMILES,Vaccinia inh,Vaccinia inh Venus
COc1ccc(CN(C)C[C@H]2OCCCC[C@@H](C)Oc3ccc(NC(=O)C4CCCCC4)cc3C(=O)N([C@@H](C)CO)C[C@@H]2C)cc1,u,x
CO[C@H]1CC[C@H]2CCOc3ccc(C#N)cc3C(=O)N(C)C[C@@H](OC)[C@H](C)C(=O)N(C)C[C@@H]1O2,7,-1
CO[C@@H]1CN(C)C(=O)c2ccc(NC(=O)c3ccc(-c4ccccc4)cc3)cc2OC[C@@H](C)NC[C@H]1C,u,x
C[C@@H]1CN([C@@H](C)CO)S(=O)(=O)c2ccc(C#Cc3ccncc3)cc2O[C@@H]1CN(C)S(=O)(=O)c1ccccc1,u,x
Cc1cccc(S(=O)(=O)N(C)C[C@@H]2OCc3ccccc3-c3ccccc3C(=O)N([C@@H](C)CO)C[C@@H]2C)c1,-22,-26
COc1ccc(S(=O)(=O)N(C)C[C@H]2Oc3ccc(NC(=O)Nc4ccc5c(c4)OCO5)cc3CC(=O)N([C@H](C)CO)C[C@H]2C)cc1,-28,-5
C[C@H]1CN([C@@H](C)CO)C(=O)Cc2cc(NC(=O)C3CC3)ccc2O[C@H]1CN(C)Cc1ccc(-c2ccccc2)cc1,0,0
CCO[C@@H]1OC(C(=O)N2CCN(C)CC2)=C[C@H](c2ccc(C(F)(F)F)cc2)[C@H]1CCCO,0,-2
C[C@@H]1CCCCO[C@@H](CN(C)Cc2ccncc2)[C@H](C)CN([C@@H](C)CO)C(=O)c2cc(NC(=O)Nc3ccccc3)ccc2O1,-2,-2
C[C@@H]1CN([C@@H](C)CO)C(=O)c2cccc(NC(=O)c3ccncc3)c2O[C@H]1CN(C)C(=O)Nc1ccc(F)cc1,1,0
O=C(C[C@@H]1CC[C@@H](NC(=O)CCN2CCCCC2)[C@@H](CO)O1)Nc1ccccc1,9,12
CCCC(=O)Nc1ccc2c(c1)OC[C@H](C)N(Cc1cncnc1)C[C@H](C)[C@@H](OC)CN(C)C2=O,12,6
COCC(=O)NC[C@H]1[C@@H](c2ccc(C3=CCCC3)cc2)[C@@H](CO)N1C(C)=O,6,19
Cc1ccc(S(=O)(=O)Nc2ccc3c(c2)C(=O)N([C@H](C)CO)C[C@@H](C)[C@@H](CN(C)C(=O)NC2CCCCC2)OCCCC[C@H](C)O3)cc1,-15,-4
C[C@H]1CN([C@@H](C)CO)C(=O)c2cc(-c3cccc(C#N)c3)cnc2O[C@@H]1CN(C)C(=O)c1cnccn1,10,-5
CC(C)NC(=O)N(C)C[C@H]1Oc2ccc(NC(=O)CCC(F)(F)F)cc2C(=O)N([C@@H](C)CO)C[C@@H]1C,12,4
C[C@H](CO)N1C[C@H](C)[C@H](CN(C)C(=O)Nc2ccc(F)cc2)Oc2ccc(NC(=O)Cc3ccccc3)cc2C1=O,28,21
C[C@@H]1CCCCO[C@H](CN(C)C(=O)CCC(F)(F)F)[C@H](C)CN([C@@H](C)CO)C(=O)c2cc(NS(=O)(=O)c3ccc(F)cc3)ccc2O1,-17,-5
C[C@@H]1CCCCO[C@H](CN(C)C(=O)c2ccccc2)[C@@H](C)CN([C@H](C)CO)C(=O)c2cc(NS(=O)(=O)c3cccs3)ccc2O1,0,0
Cc1ccc(-c2ccc3c(c2)O[C@H](CN(C)C(=O)C2CCC2)[C@H](C)CN([C@H](C)CO)S3(=O)=O)cc1,13,0
C[C@@H]1CCCCO[C@@H](CN(C)C(=O)NC2CCCCC2)[C@H](C)CN([C@@H](C)CO)C(=O)c2cc(NS(=O)(=O)c3cccs3)ccc2O1,12,3
C[C@H]1CN([C@@H](C)CO)C(=O)c2cc(-c3ccc(C#N)cc3)cnc2O[C@@H]1CN(C)CC1CCCC1,7,3
CC(=O)N(C)C[C@H]1Oc2cc(-c3cncnc3)ccc2S(=O)(=O)N([C@@H](C)CO)C[C@H]1C,16,1
O=C(NCc1ccccn1)[C@@H]1[C@@H](CO)[C@@H]2Cn3c(cccc3=O)[C@@H]2N1CCc1ccccc1,11,59
CN(C)C(=O)c1cccc(-c2ccc([C@@H]3[C@H](CO)N4C(=O)CN(C(=O)C5CCC5)C[C@@H]34)cc2)c1,3,1
COc1ccccc1C#Cc1cnc2c(c1)C(=O)N([C@H](C)CO)C[C@@H](C)[C@H](CN(C)C(=O)CC1CC1)O2,-6,-10
COc1ccccc1CN1[C@H](CO)[C@H]2c3ccccc3N(C(=O)c3ccncc3)C[C@H]21,7,4
COC(=O)[C@@H]1[C@@H](CO)[C@@H]2Cn3c(ccc(C4=CCCC4)c3=O)[C@H]1N2S(=O)(=O)c1cn(C)cn1,4,10
COc1ccccc1CNC(=O)C[C@@H]1CC[C@H]2[C@@H](COC[C@H](O)CN2C(=O)Nc2ccccc2)O1,4,7
O=C(N[C@H]1CC[C@H](CCNC(=O)C2CCCCC2)O[C@H]1CO)c1ccncc1,9,3
CN(C)C(=O)c1ccc(-c2ccc([C@H]3[C@@H](CO)N4C(=O)CN(C(=O)C5CCCC5)C[C@@H]34)cc2)cc1,-12,-10
CC(C)NC(=O)Nc1ccc2c(c1)CC(=O)N([C@H](C)CO)C[C@H](C)[C@H](CN(C)Cc1ccc(C(F)(F)F)cc1)O2,-8,-8
C[C@@H]1CN([C@H](C)CO)C(=O)c2cc(NC(=O)CCC(F)(F)F)ccc2O[C@H]1CN(C)Cc1ccc(Cl)c(Cl)c1,-31,-20
CC(C)C(=O)Nc1ccc2c(c1)C(=O)N(C)[C@@H]1CC[C@H](CC(=O)NCc3ccccc3)O[C@@H]1CO2,-5,10
COCCNC(=O)C[C@H]1CC[C@H]2[C@@H](COC[C@@H](O)CN2C(=O)Nc2ccccc2OC)O1,17,7
